High-throughput results as filed in PubChem.
Marburg entry inh: qHTS for inhibitors of binding or entry into cells for Marburg Virus; Potency, µM (top dose mostly 37.8 µM), without a hit: at the highest dose activity change, negative = inhibition, actives largely listed as inhibitors; 1.8% of 300,000 active; Marburg virus pseudotyped entry inhibition, cell reporter; control for the full effect not named in the record; about a third of the inactives were read at about 46 µM; active = well fitted inhibition curve with a large enough effect; inconclusive = small, poorly fitted or top-dose-only effect, or effect the other way; inactive = flat fitted curve, though single readings scatter; tested in HEK293 cells; about a fifth of its hits are not listed in these tables; note: % is set by controls: 0 for no effect and ±100 for the full control effect; luciferase read-out
Cruzain Triton: qHTS Assay for Promiscuous and Specific Inhibitors of Cruzain (with detergent). purified cruzain, Z-FR-AMC fluorescence, 0.01% Triton. Potency, µM, without a hit: max response, negative = inhibition, actives largely listed as inhibitors. 0.43% of 200,000 active. AID 1478, 2009;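 note: plate controls were neutral wells for no effect and buffer without enzyme for full effect; nearly all actives have a fitted effect of over 40% in size; top concentration of the series not given in the record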
Target sequence (P25779 123-467 limits assumed): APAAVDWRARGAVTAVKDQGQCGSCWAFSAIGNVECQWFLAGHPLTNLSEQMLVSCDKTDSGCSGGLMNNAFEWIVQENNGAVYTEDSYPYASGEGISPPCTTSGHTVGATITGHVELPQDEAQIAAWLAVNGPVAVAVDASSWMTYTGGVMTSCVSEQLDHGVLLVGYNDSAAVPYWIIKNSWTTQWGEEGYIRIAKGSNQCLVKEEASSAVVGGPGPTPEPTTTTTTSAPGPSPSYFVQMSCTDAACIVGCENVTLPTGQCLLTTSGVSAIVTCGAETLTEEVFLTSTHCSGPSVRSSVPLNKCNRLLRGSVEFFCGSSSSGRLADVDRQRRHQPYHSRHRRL
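Detergent-containing arm of a paired screen for aggregation-based inhibition: 0.01% Triton X-100 present. Cruzain at 1.5 nM cleaved 2 uM Z-FR-AMC at pH 5.5 with 5 mM DTT; AMC fluorescence gain over 60 s measured activity.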
NS1 function inh: qHTS Assay for Inhibitors of Influenza NS1 Protein Function; 0.4% of 270,000 active; AID 2326, 2010; Potency, µM (doses to about 46.1 µM), for inactives: at the top dose activity, positive = more growth; S. cerevisiae slowed by influenza A NS1, growth recovery by OD600; active means well fitted rising curve with a large enough effect; inconclusive means small, poorly fitted or top-dose-only effect; inactive means no such curve, though single readings can be large or run the other way; note: nearly all actives have a fitted effect of over 50% in size
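Compounds were scored for reversing the slow growth caused by influenza A NS1 in S. cerevisiae, measured by optical density at 600 nm. Assay medium contained 2% galactose at pH 6.0; NS1-free yeast of the same strain were the positive control.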
2A StopGo: High Throughput Screening for Foot and Mouth Disease Virus Antivirals. 1.2% of 410,000 active. human cells with a luciferase reporter of 2A StopGo recoding; control for the full effect not named in the record. Potency, µM (highest dose often 57.9 µM), for the others: at the top dose signal change, negative = less light; active = well fitted falling curve with a large enough effect; inconclusive = small, poorly fitted or top-dose-only effect; inactive = no such curve, though single readings can be large or run the other way; tested in HEK293T cells; note: % is set by controls: 0 for no effect and ±100 for the full control effect; nearly all actives have a fitted effect of over 45% in size; luciferase light after 4 h
Cruzain noTriton: qHTS Assay for Promiscuous and Specific Inhibitors of Cruzain (without detergent); Cruzipain (Trypanosoma cruzi), P25779; purified cruzain, Z-FR-AMC fluorescence, no detergent; 2.3% of 200,000 active; Potency, µM, for the others: max response, negative = inhibition, actives largely listed as inhibitors;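 note: plate controls were enzyme without inhibitor for no effect and buffer without enzyme for full effect; nearly all actives have a fitted effect of over 40% in size; top concentration of the series not given in the record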
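Purified cruzain at 1.5 nM, pre-incubated 15 min with compound at room temperature in 100 mM sodium acetate pH 5.5, 5 mM DTT, 0.00005% Triton X-100. Reaction started with 2 uM Z-FR-AMC; AMC fluorescence increase over 60 s gives rate.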
SARS PLP yeast: qHTS of Yeast-based Assay for SARS-CoV PLP. Potency, µM (top dose mostly 32.9 µM), for the others: at the top dose activity, positive = growth rescue. S. cerevisiae expressing SARS-CoV PLpro, growth rescue; control for the full effect not named in the record. 0.19% of 330,000 active. AID 485353, 2010; active means well fitted rising curve with a large enough effect; inconclusive means small, poorly fitted or top-dose-only effect; inactive means no such curve, though single readings can be large or run the other way; note: 0% is about no effect; nearly all actives have a fitted effect of over 55% in size; growth read by luminescence after 48 h
RE007 growth inh: qHTS Assay for Inhibitors of the HIV-1 protein Vpr; Potency, µM (top dose mostly 92.2 µM), inactives show at the top dose activity change, negative = less growth; 0.21% of 360,000 active; S. pombe RE007 Vpr strain, BacTiter-Glo ATP luminescence, 24 h; control for the full effect not named in the record; active = well fitted falling curve with a large enough effect; inconclusive = small, poorly fitted or top-dose-only effect; inactive = no such curve, though single readings can be large or run the other way;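 note: % is set by controls: 0 for no effect and ±100 for the full control effect; nearly all actives have a fitted effect of over 50% in size; the assay follows cell death caused by Vpr and the record does not say whether a fall means rescue or toxicity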
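Fission yeast RE007 carrying one integrated HIV-1 vpr copy, seeded at OD 0.01 in PMG+AL medium with 23 nL pinned compound. Grown 24 h at 30 degrees; viability read by BacTiter-Glo luminescence after 5 min.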
LASV entry inh: qHTS for Inhibitors of binding or entry into cells for Lassa Virus; Potency, µM (doses to about 37.9 µM), inactives show top-dose activity change, negative = inhibition, actives largely listed as inhibitors; AID 540256, 2011; Lassa virus pseudotype entry inhibition, cell reporter; control for the full effect not named in the record; 1.2% of 300,000 active; active means well fitted inhibition curve with a large enough effect; inconclusive means small, poorly fitted or top-dose-only effect, or effect the other way; inactive means flat fitted curve, though single readings scatter; tested in HEK293 cells; note: % is set by controls: 0 for no effect and ±100 for the full control effect; nearly all actives have a fitted effect of over 50% in size; luciferase read-out
* = called active by the depositor; ? = inconclusive; / = not tested or not shown; & = joins results of further samples; [ ] = remark or other dose. Unless noted, calls come from the whole dose curve; as a rule, active = well fitted curve in the direction sought with a large enough effect; inconclusive = small, poorly fitted or top-dose-only effect, or another doubt; inactive = no such curve, though single readings can be large; an effect the other way counts as inactive or inconclusive. Potency is the fitted concentration of half-maximal effect.

Compound	SARS PLP yeast	LASV entry inh	Marburg entry inh	Cruzain Triton	Cruzain noTriton	2A StopGo	NS1 function inh	RE007 growth inh
N#C/C(=C\c1cn(Cc2ccc(F)cc2)c2ccccc12)C(=O)NCc1ccco1	1%	-22%	-7%	-12%	?	-19%	20%	-17%
CC(NS(=O)(=O)c1ccccc1)C(=O)NCc1ccco1 (stereo unspecified)	4%	0%	16%	-11%	-7%	/	7%	12%
Fc1cccc(-c2csc(-c3ccno3)n2)c1	-1%	/	/	/	/	37%[activator]	-1%	-21%
O=S(=O)(c1cccc2nonc12)N1CCN(c2ccccc2F)CC1	-1%	5%	-20%[46.1 µM]	/	/	-14%	1%	8%
CSc1ccc(CNCc2c(C(=O)O)c(C)n(Cc3ccc(F)cc3Cl)c2C)cc1	/	-5%[46.1 µM]	-16%[46.1 µM]	-3.9%	6%	-2%	/	/
C=CCN(c1ccccc1OC)S(=O)(=O)c1cccc(C(=O)NCc2ccco2)c1	-7%	17%[46.1 µM]	-17%[46.1 µM]	/	/	-5%	/	-28%
O=C1c2ccccc2C(=O)N1C(CO)C(O)c1ccc([N+](=O)[O-])cc1 (stereo unspecified)	-2%	/	/	/	/	1%	2%	-9%
Cc1ccc(CNC(=O)c2cccc(NC(=O)N3CCSc4ncccc43)c2)cc1	/	-11%[46.1 µM]	/	-7.9%	-4%	?	/	/
Cc1cc(C)cc(NS(=O)(=O)c2c(C)nc3scc(C)n3c2=O)c1	/	18%[46.1 µM]	?	-1.9%	9%	48%[activator]	/	/
O=C(Nc1ccc(Br)cc1F)c1ccncc1	-15%	5%	9%	-0.3%	-10%	47%[activator]	-7%	?
Cc1ccc(CS(=O)(=O)c2ccc(C(=O)N3CCN(c4ccccn4)CC3)cc2[N+](=O)[O-])cc1	0%	-24%	?	/	/	16µM*	-30%	-5%
COc1ccccc1CN1CC(C(=O)NCCc2ccc(C)o2)CCC1=O (stereo unspecified)	13%	/	/	/	/	18%	-10%	6%
CCCCn1c(N)c(N(CCC(C)C)C(=O)C2=NN(c3cc(C)ccc3C)C(=O)CC2)c(=O)[nH]c1=O	0%	?	-7%	/	/	-9%	/	1%
CCOC(=O)CCCSc1nc2sc(C)c(C)c2c(=O)[nH]1	-6%	/	/	0.0%	-24%	-5%	-5%	-11%
COc1cccc2sc3ccc(NCc4ccc5c(c4)OCO5)cc3c(=O)c12	-13%	/	/	/	/	19%	3%	-4%
CC(Sc1cccc(C(F)(F)F)c1)C(=O)NC(N)=O (stereo unspecified)	4%	4%	1%	-4.0%	5%	/	1%	-14%
Oc1ccc(-c2csc(Nc3cccc4ccccc34)n2)cc1O	-2%	-18%[46.1 µM]	29%[46.1 µM]	/	/	-1%	-62%	2%
O=[N+]([O-])c1ccc(Sc2cccc3cccnc23)c([N+](=O)[O-])c1	5%	/	/	-2.0%	-2%	?	-47%	-17%
O=C(CNCc1ccccc1)Nc1ccc(Cl)cc1	-1%	/	/	/	/	39%[activator]	-8%	3%
CCc1nnc(NC(=O)CN2CCN(Cc3cccc(OC)c3)CC2)s1	0%	-4%[46.1 µM]	-4%[46.1 µM]	/	/	-3%	8%	-1%
COc1ccc(S(=O)(=O)N2CCCC2C(=O)n2nc(C)cc2C)cc1 (stereo unspecified)	0%	?	?	/	/	0%	/	14%
CCOC(=O)c1nc2ccccc2c(C)c1C	4%	17%[46.1 µM]	-5%[46.1 µM]	/	/	3%	-31%	-5%
O=C(C[n+]1ccc(-c2ccccc2)cc1)Nc1ccc([N+](=O)[O-])cc1	4%	/	/	/	/	-11%	2%	-26%
CC1(C(=O)NC2CCCCC2)CCC(=O)N1Cc1ccc2c(c1)OCO2 (stereo unspecified)	2%	-1%	22%	/	/	-7%	-6%	4%
COc1ccc(NS(=O)(=O)c2cc(NC(=O)c3ccccc3F)ccc2N2CCCC2)cc1	0%	?	?	/	/	66%[activator]	0%	-10%
COc1ccc(NC(=O)COc2cccc3c2CCN(C)C3=O)c(OC)c1	3%	-9%	-15%	/	/	?	3%	3%
O=C(NCCc1ccccn1)c1cc(C(=O)C2CCCCC2)c[nH]1	5%	-4%	1%	12%	-4%	12%	-2%	2%
Cc1ccc(C(=O)N2CCn3c4c(c5cc(C)ccc53)CCCC42)cc1 (stereo unspecified)	/	9%[46.1 µM]	-14%[46.1 µM]	-3.5%	-6%	-16%	/	/
Cc1cc(Cl)ccc1OCCCC(=O)N1CCN(S(=O)(=O)c2ccccc2)CC1	3%	?	-11%	/	/	-21%	/	9%
Cc1cc(SCC(=O)c2ccccc2)nc(=O)[nH]1	?	/	/	/	/	8%	1%	-4%
CN(C(=O)CSc1nc(-c2ccccc2)cs1)C1CCS(=O)(=O)C1 (stereo unspecified)	0%	4%	25%	-0.8%	4%	4%	1%	1%
Cc1ccc2cc(C#N)c(N3CCCN(S(=O)(=O)c4ccc(F)cc4)CC3)nc2c1	-17%	-1%	?	-9.0%	2%	/	8%	-6%
CCOc1ccc(CCNC(=O)CN2CCN(Cc3ccc(F)cc3Cl)C2=O)cc1OCC	/	-2%[46.1 µM]	-24%[46.1 µM]	-3.8%	?	-28%	/	/
c1ccc(Cc2nnc3sc(-c4ccc5c(c4)OCO5)nn23)cc1	/	3%	1%	/	/	31%[activator]	/	-11%
CC1(C)OC(C)(C)/C(=C\c2ccccc2[N+](=O)[O-])C1=O	-1%	/	/	/	/	?	-1%	2%
CCc1cc2c(-c3ccccc3)cc(=O)oc2cc1OC(=O)c1cccs1	-10%	7%	-7%	3.2%	-2%	10%	3%	-5%
Cc1cccc(NP(C)(=O)c2nc3c(s2)CCCC3)c1 (stereo unspecified)	-6%	0%[46.1 µM]	-16%[46.1 µM]	2.8%	1%	0%	3%	6%
CCC(C)c1ccccc1NC(=O)COC(=O)C1=COCCO1 (stereo unspecified)	-1%	-3%[46.1 µM]	?	/	/	-6%	-7%	0%
Cc1ccc(NC(=O)C2CCN(C(=O)[C@@H]3Cc4ccccc4CN3)CC2)cc1	-1%	/	/	/	/	-5%	-3%	-2%
Cc1ccc(NC(=O)CSc2n[nH]c(-c3cccnc3)n2)cc1Cl	-3%	-1%[46.1 µM]	2%[46.1 µM]	/	/	-24%	16%	-4%
CCN(CC(=O)Nc1ccc(NC(C)=O)cc1)C(=O)CSc1nnc(-c2ccco2)n1CC	-7%	?	?	/	/	-1%	/	-6%
COc1ccccc1NC(=O)c1ccc2c(c1)N(CC(=O)NC(C)(C)C)C(=O)C(C)(C)O2	5%	-25%	-1%[46.1 µM]	/	/	-6%	-7%	-5%
O=c1[nH]c(CSc2nnc(Nc3ccccc3)s2)nc2ccccc12	-1%	/	/	/	/	-11%	4%	2%
CC1CCCCC1NC(=O)CN1CCC(O)(c2ccc3c(c2)OCO3)CC1 (stereo unspecified)	1%	0%	?	/	/	-2%	-1%	3%
CC1(c2ccccc2)CC(C)(C)N(C(=O)c2cccc(Cl)c2)c2ccccc21 (stereo unspecified)	/	-19%[46.1 µM]	/	0.5%	?	3%	/	/
Cc1nc2c3ccccc3[nH]c(=O)n2n1	26%	-4%	3%	0.2%	-1%	3%	3%	7%
COc1ccccc1N(CC(=O)NCCSc1ccccn1)S(=O)(=O)c1ccccc1	0%	-16%	?	/	/	-16%	-13%	-12%
COc1ccc(N2CCN(C(=S)Nc3cc(C)ccc3C)CC2)cc1	-9%	3%	11%	2.6%	-6%	/	9%	23%
O=C(COC(=O)C12CC3CC(CC(C3)C1)C2)Nc1ccc(OC(F)F)cc1	-24%	?	28%	-3.4%	-8%	-6%	-9%	-12%[3.69 µM]
CCOc1ccc(CCNC(=O)CN2C(=O)CCSc3ccccc32)cc1	-1%	?	?	/	/	-1%	2%	10%
O=C(Nc1cccc(Cl)c1Cl)c1ccc2c(c1)N(Cc1cccc(Cl)c1)C(=O)c1ccccc1S2=O (stereo unspecified)	/	20%[46.1 µM]	/	0.0%	-3%	-24%	/	/
O=C(COc1ccccc1)NCCSCc1ccco1	-15%	1%	-4%[46.1 µM]	-0.6%	-7%	23%	3%	-7%
O=C1CCSC2(C(=O)N(Cc3ccccc3)c3ccccc32)N1c1ccccc1 (stereo unspecified)	/	-17%[46.1 µM]	/	-6.6%	-24%	-29%	/	/
CCc1cccc2cc3c(N)c(C(=O)Nc4ccc(S(=O)(=O)N5CCCC5)cc4)sc3nc12	17%	?	?	-0.5%	?	21%	4%	-5%
CC1(C)CC(=O)c2cnc(NCc3ccco3)nc2C1	-1%	21%	?	-3.2%	-9%	-6%	3%	-3%
O=C(NCC(c1cccnc1)N1CCN(c2ccccc2)CC1)c1ccc2c(c1)OCO2 (stereo unspecified)	0%	0%	-5%&-5%	4.2%	-8%	0%	-20%	?
CCN1CCN(c2ccc(S(=O)(=O)N3CCOCC3)cc2NC(=O)CCOc2ccccc2)CC1	1%	14%[46.1 µM]	-26%[46.1 µM]	/	/	-19%	-7%	9%
Cn1c(=O)[nH]c(=O)c2c1nc(Br)n2CCOc1ccccc1	1%	8%	8%	-1.7%	6%	18µM*	-1%	4%
CCOC(=O)N1CCC(NC(=O)c2cc(-c3ccc(OC)cc3)nc3ccccc23)CC1	7%	/	/	/	/	10%	2%	1%
Fc1ccc(-n2c(-c3ccc4ccccc4n3)n[nH]c2=S)cc1	0%	/	/	/	/	-17%	0%	-10%
Cc1cc(NC(=O)COc2cccc3cccnc23)no1	-2%	/	/	1.5%	-11%	/	3%	/
